Mtb hypoxia rep: inhibitors of hypoxia-regulated fluorescent reporter in Mycobacterium tuberculosis | 300,000 compounds, 0.1% hits | AID 1159583 | M. tuberculosis hypoxia-regulated fluorescent reporter, fluorescence | fluorescence inhibition, % (no concentration beside the values);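 active = 35 to 45% if threefold the growth effect, above 45% if 1.5-fold the growth effect; inactive = the rest, general growth blockers included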;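 note: wells of about 50 µL received 100 nL stock; 0% = vehicle wells and 100% = reference inhibitor wells; whole bacteria with a GFP reporter of the hypoxia response; strong numbers were not always called active; many hits fall short of the cut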
Autofluor counter: counter-screen for toxin protease inhibitors: compound fluorescence; compound autofluorescence counterscreen, microsphere flow cytometry; hits give high values; fluorescence intensity (test concentration not listed); 360,000 compounds, 3.1% hits; AID 624483;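 active = at least 3 SD above the mean of all compounds, about 16000 in these data; inconclusive = too few beads counted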;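 note: 100 nL of 1 mM stock went into each well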
ugtP null kill: compounds lethal to S. aureus RN4220 ugtP deletion mutant | OD600 growth, 16 h; some inactives read as strong as hits | growth inhibition, % (no concentration beside the values) | 330,000 compounds, 0.54% hits | AID 1259309;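 active = z-score under -3 and OD600 up to 0.15 on both plates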;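 note: plate controls were untreated wells for no effect and antibiotic for full effect; wells of about 80 µL received 100 nL stock; the first replicate is given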
PrP UTR inh: suppresses PrP 5' UTR mRNA reporter expression; cell-based PrP 5' UTR mRNA reporter, plate reader; 340,000 compounds, 0.35% hits; inhibition, % (test concentration not listed);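 active = every replicate at 50% or more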;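 note: 0 = median of the neutral control wells; tested in H4 reporter cells; numbers are from one replicate; inactives centre near -14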
BJeLR lethal: kills HRASV12-expressing BJeLR cells; BJeLR (HRASV12) viability, CellTiter-Glo ATP luminescence, 48 h; reference of the scale not given here; inhibition, % (no concentration beside the values); 300,000 compounds, 0.17% hits;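 active = replicate mean above 50%; inconclusive = above 50% but judged a plate artefact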;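 note: 50 nL library stock added to about 25 µL; numbers are from one replicate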
RN4220 kill: S. aureus RN4220 growth inhibition; inhibition, % (no concentration beside the values); AID 1259311; 330,000 compounds, 0.33% hits; OD600, 16 h;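 active = z-score of -3 or lower and OD600 up to 0.18 on both plates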;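 note: plate controls were untreated cells for no effect and reference antibiotic for full effect; stock transfer was 100 nL into about 80 µL; one replicate is shown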
Mtb hypoxia rep growth: also measured in Mtb hypoxia rep; calls as there; growth inhibition, %; measured here: M. tuberculosis growth (absorbance);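 0% = vehicle and 100% = reference antibiotic; read after six days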
The depositor's hits bear a star; u = inconclusive; x = not tested or not shown.

SMILES	Mtb hypoxia rep	Mtb hypoxia rep growth	Autofluor counter	ugtP null kill	PrP UTR inh	BJeLR lethal	RN4220 kill
Cc1ccc(C2CC(c3cccs3)=NN2C(=O)CSC2=NCCS2)cc1 (stereo not given)	0	0	5314	-3	-1	-2	1.8
COc1ccc(CC(=O)Nc2nn(C)c3nc4c(C)cccc4cc23)cc1	6	7	x	3	x	6	1.9
COC(=O)C1OC2(OC1C(=O)OC)c1ccccc1-c1ccccc12 (stereo not given)	x	x	4302	10	-23	-2	5.8
Cc1cc(=O)n(CCO)c(O)c1C#N	9	0	7000	7	-8	-7	1.0
COc1cc2cc(CN(CCO)C(=O)c3cccs3)c(=O)[nH]c2cc1OC	12	8	8304	16	8	-3	5.6
CC(=O)c1ccc(N2CCN(C(=O)C3CCN(S(=O)(=O)c4ccc5c(c4)CC(C)N5C(=O)C4CC4)CC3)CC2)cc1 (stereo not given)	-12	-5	4764	21	-5	-1	4.7
Cc1c(C(=O)Nc2ccc3c4c(cccc24)CC3)cccc1[N+](=O)[O-]	-4	2	2551	6	-12	5	24
O=C(O)CCNS(=O)(=O)c1ccc(Oc2ccccc2Cl)cc1	6	2	17172*	1	-16	-9	2.3
Cc1nc(SC(C)C(=O)c2c(N)n(C)c(=O)n(C)c2=O)c2c(C)c(C)sc2n1 (stereo not given)	-7	-7	6103	-5	-16	-12	0.0
CCC(OC(=O)c1nsc(Cl)c1Cl)C(=O)NCc1cccs1 (stereo not given)	15	11	4312	-2	-12	-9	9.5
Cc1ccccc1NC(=O)CN1C(=O)NC2(CCc3ccccc32)C1=O (stereo not given)	-4	3	u	-4	0	x	-2.1
O=C(c1ccc(Cl)cc1)N1CCC(O)(CSc2ccc(Cl)cc2)CC1	x	x	2202	-3	1	-3	-3.5
Cc1ccc(NC(=O)CCSc2nnnn2-c2ccc3c(c2)OCO3)cc1C	x	x	3846	2	-15	-7	23
CCOC(=O)c1ccccc1N=Cc1c(O)c2ccccc2oc1=O	-2	-3	3768	2	-46	-4	3.5
CC(C)(C)NC(=S)NNC(=O)c1ccncc1	7	5	2110	-4	-26	7	12
O=C(NCC(=O)N1CCN(c2ccccc2O)CC1)c1ccccc1	1	2	3645	2	-28	-2	3.0
CCOc1ccc(NS(=O)(=O)c2ccc(C(=O)NCc3ccncc3)cc2)cc1	0	0	42543*	3	-18	1	-3.8
O=C(OCC(=O)N1CCc2ccccc2C1)c1ccc(OC(F)F)cc1	3	7	6376	-2	-18	x	-2.5
COc1cc(NC(=O)C2CCCCC2)c(OC)cc1NC(=O)CCC(=O)NCc1ccco1	3	4	22591*	-5	-26	-3	7.7
COc1ccc(NC(=O)c2nc(S(=O)(=O)Cc3cccc(C)c3)ncc2Cl)c(OC)c1	12	7	5414	2	-19	33	0.2
COc1ccc(CNC(=S)Nc2ccc3nc(N4CCOCC4)cc(C)c3c2)cc1	14	-1	2264	8	-23	-7	6.2
CSc1c(C#N)c(N)nc2sc(C(=O)c3ccc(Cl)c(Cl)c3)c(N)c12	4	-1	x	-10	x	2	2.3
CCOC(=O)N1CCN(C(=O)CSCc2ccc(Cl)cc2)CC1	x	x	2392	-4	-5	-1	-4.4
CC(C)OC(=O)CN1CCN(c2ccc(Cl)cc2)CC1	8	0	1988	5	-20	-3	7.9
Cc1ccc(OCC(=O)OCC(=O)N2c3ccccc3CC2C)cc1C (stereo not given)	-5	-9	2920	12	-9	x	7.9

A second format for some results above.
| mol | Mtb hypoxia rep | Mtb hypoxia rep growth | Autofluor counter | ugtP null kill | PrP UTR inh | BJeLR lethal | RN4220 kill |
| --- | --- | --- | --- | --- | --- | --- | --- |
| Cc1nc(SC(C)C(=O)c2c(N)n(C)c(=O)n(C)c2=O)c2c(C)c(C)sc2n1 (stereo not given) | -7 | -7 | 6103 | -5 | -16 | -12 | 0.0 |
| COc1ccc(CNC(=S)Nc2ccc3nc(N4CCOCC4)cc(C)c3c2)cc1 | 14 | -1 | 2264 | 8 | -23 | -7 | 6.2 |

Continuation.
SMILES	Mtb hypoxia rep	Mtb hypoxia rep growth	Autofluor counter	ugtP null kill	PrP UTR inh	BJeLR lethal	RN4220 kill
c1ccc(-c2cc(-c3ccccc3)n3ncnc3n2)cc1	8	4	4770	-1	-21	8	9.2
CC(C)=Cc1c(O)nc2ccccn2c1=O	4	15	2610	-3	-20	-6	4.3
OCCCCNCc1ccc(OCc2ccccc2)cc1	3	4	2254	0	-8	5	0.9
O=C(O)c1csc(-c2ccc(Cl)cc2)n1	-4	5	4263	2	-28	2	3.8
CC(Oc1ccc(Cl)cc1Cl)C(=O)NNC(=O)C(=O)N1CCCC1 (stereo not given)	x	x	4184	x	-16	5	x
S=C(Nc1ccccc1Cl)NC1CC2CCCC(C1)N2C1CC1 (stereo not given)	7	-5	4296	2	-15	-2	0.8
COc1cc(Br)ccc1C1CC(=O)C(C)C(c2ccc(Br)cc2OC)N1 (stereo not given)	-13	7	3626	-12	-6	-7	-4.7
COC(=O)CSc1cc([N+](=O)[O-])ccc1NC(=O)OC	-8	4	8394	-7	-25	0	-0.5
CN(C)c1nc(-c2ccccn2)nnc1-c1ccccc1	x	x	4549	3	-9	82*	13
O=c1c2ccc([N+](=O)[O-])cc2ncn1CCOc1cccc(Br)c1	-3	16	5985	-4	-15	3	-4.4
CC(C)(C)c1cc(C(=O)NNC(=O)Nc2cccc(Cl)c2)n(Cc2ccccc2)n1	7	11	4388	-16	-18	-12	-15
O=C(Cn1cc(C=NNC(=O)c2cccc3ccccc23)c2ccccc21)Nc1ccc(F)cc1	7	-4	x	-1	x	x	-7.0
CSc1ccccc1OC1CCN(Cc2ccccc2)CC1	x	x	10080	x	-5	3	x
O=c1c2ccccc2nc(SCc2ccc(F)cc2Cl)n1CCCN1CCOCC1	9	4	4801	1	-25	2	0.5
COc1ccc(C(=O)NCC(c2cccs2)N2CCOCC2)cc1OC (stereo not given)	5	-5	3926	5	-18	x	3.4
COCCn1c(SCC(=O)Nc2ccc3c(c2)CCC3)nc2ccccc2c1=O	4	-1	1828	3	2	-12	0.7
COc1cc(C2(O)CCCCC2C)cc(OC)c1OC (stereo not given)	-1	-1	2634	2	9	12	0.5
O=C(COC(=O)c1cc(Cl)ccc1Cl)Nc1ccc2[nH]c(=O)[nH]c2c1	1	15	5486	-12	-22	-6	3.1
Cc1cccc(C(=O)OCC(=O)NC(C)CCc2ccccc2)c1 (stereo not given)	12	6	4539	-1	1	-15	12
C=C(C)C1CC=C(C)C(=NNC(=O)C2CC2c2ccccc2)C1 (stereo not given)	2	6	x	22	x	x	-0.6
COc1ccc(CN2CCNC(=O)C2CC(=O)N(C)CCC2CCOCC2)cc1OC (stereo not given)	14	2	5815	10	9	3	3.9
COc1ccccc1C1=NOC(Cn2c(NCC3CCCO3)nc3c2c(=O)n(C)c(=O)n3C)C1 (stereo not given)	13	3	x	-2	-1	-18	-0.4
Cc1cc(NC(=O)CCC(=O)N(C2CC2)C(C(=O)NC(C)(C)C)c2ccccc2Cl)no1 (stereo not given)	0	3	3609	7	-8	-10	-0.8
CC(=NNC(=O)CSc1nc2ccccc2s1)c1cccnc1	-8	-4	x	-1	x	x	-4.6
O=[N+]([O-])c1ccc(Oc2cccc3cccnc23)c(Cl)c1	6	0	3112	26	-12	-5	-3.6

Other records follow.
SMILES	Mtb hypoxia rep	Mtb hypoxia rep growth	Autofluor counter	ugtP null kill	PrP UTR inh	BJeLR lethal	RN4220 kill
CCOC(=O)/C(C#N)=C/Nc1cc(C(C)(C)C)sc1C(C)=O	-4	9	5713	-5	-13	5	-2.5
C=CCc1cc(C)ccc1OCCOCCC(C(=O)OCC)C(=O)OCC	-6	-6	2485	-10	-23	-11	-1.4
CCCCNC(=S)N(C)N=Cc1c(F)cccc1F	7	6	x	13	x	x	12
O=C(N/N=C/c1ccncc1)c1cc(-c2ccc(Br)s2)[nH]n1	x	x	5800	x	-6	1	x
CCNC(=O)CSc1ncnc2sccc12	x	x	4245	-6	-10	1	3.8
COC(=O)c1c(C)oc2ccc(N(C(=O)c3ccncc3)S(=O)(=O)c3ccc(C)cc3C)cc12	-4	1	2469	3	-29	15	6.9
Cc1noc(C)c1CN1C(=O)c2ccccc2C1=O	14	3	5015	8	-8	-3	3.0
CCC(O)C1CCN(C(=O)c2cc(COc3ccc4ncccc4c3)on2)CC1 (stereo not given)	15	3	4282	3	-26	9	4.9
C=CCn1c(COc2ccc(F)cc2)nnc1SCC(=O)N1CC(=O)Nc2ccccc21	12	3	21515*	7	-14	-18	1.2
COC(=O)[C@H](Cc1ccccc1)NC(=O)N1CCC(C)CC1	0	-9	15613	1	0	3	-1.3
CCCCn1c(N)c(N(CCOC)C(=O)c2ccc(N(C)S(=O)(=O)c3ccc(C)cc3)cc2)c(=O)[nH]c1=O	7	-9	u	1	-20	-2	2.9
COCC(=O)NC1CC2CCC(C1)N2C(=S)Nc1ccccc1C(=O)OC (stereo not given)	4	8	4524	1	-2	0	9.2
O=c1[nH]c2ccc(NS(=O)(=O)c3ccc4ccccc4c3)cc2[nH]1	8	2	4026	6	-42	-4	2.7
Cc1c(Cl)sn(-c2ccc(Cl)cc2)c1=O	x	x	2401	101*	-23	x	101*
O=C1COc2ccc(C(=O)NCc3ccco3)cc2N1	7	-5	6452	10	-12	9	3.8
N=c1sccn1CC(=O)Nc1ccc(S(N)(=O)=O)cc1	1	8	4588	0	-18	1	2.7
O=C(CCN1C(=O)C2C3C=CC(C3)C2C1=O)NCc1cccnc1 (stereo not given)	x	x	5898	-12	-6	8	7.1
COc1cccc(CNC(=O)CSc2ccc(-c3ccncc3)nn2)c1	15	14	x	7	x	2	6.8

In the list so far, these have four or more nitrogen atoms:
SMILES	Mtb hypoxia rep	Mtb hypoxia rep growth	Autofluor counter	ugtP null kill	PrP UTR inh	BJeLR lethal	RN4220 kill
COc1ccc(CC(=O)Nc2nn(C)c3nc4c(C)cccc4cc23)cc1	6	7	x	3	x	6	1.9
CC(=O)c1ccc(N2CCN(C(=O)C3CCN(S(=O)(=O)c4ccc5c(c4)CC(C)N5C(=O)C4CC4)CC3)CC2)cc1 (stereo not given)	-12	-5	4764	21	-5	-1	4.7
Cc1nc(SC(C)C(=O)c2c(N)n(C)c(=O)n(C)c2=O)c2c(C)c(C)sc2n1 (stereo not given)	-7	-7	6103	-5	-16	-12	0.0
Cc1ccc(NC(=O)CCSc2nnnn2-c2ccc3c(c2)OCO3)cc1C	x	x	3846	2	-15	-7	23
CC(C)(C)NC(=S)NNC(=O)c1ccncc1	7	5	2110	-4	-26	7	12
COc1ccc(CNC(=S)Nc2ccc3nc(N4CCOCC4)cc(C)c3c2)cc1	14	-1	2264	8	-23	-7	6.2
CSc1c(C#N)c(N)nc2sc(C(=O)c3ccc(Cl)c(Cl)c3)c(N)c12	4	-1	x	-10	x	2	2.3
c1ccc(-c2cc(-c3ccccc3)n3ncnc3n2)cc1	8	4	4770	-1	-21	8	9.2
CN(C)c1nc(-c2ccccn2)nnc1-c1ccccc1	x	x	4549	3	-9	82*	13
CC(C)(C)c1cc(C(=O)NNC(=O)Nc2cccc(Cl)c2)n(Cc2ccccc2)n1	7	11	4388	-16	-18	-12	-15
O=C(Cn1cc(C=NNC(=O)c2cccc3ccccc23)c2ccccc21)Nc1ccc(F)cc1	7	-4	x	-1	x	x	-7.0
COc1ccccc1C1=NOC(Cn2c(NCC3CCCO3)nc3c2c(=O)n(C)c(=O)n3C)C1 (stereo not given)	13	3	x	-2	-1	-18	-0.4
Cc1cc(NC(=O)CCC(=O)N(C2CC2)C(C(=O)NC(C)(C)C)c2ccccc2Cl)no1 (stereo not given)	0	3	3609	7	-8	-10	-0.8
CC(=NNC(=O)CSc1nc2ccccc2s1)c1cccnc1	-8	-4	x	-1	x	x	-4.6
O=C(N/N=C/c1ccncc1)c1cc(-c2ccc(Br)s2)[nH]n1	x	x	5800	x	-6	1	x
C=CCn1c(COc2ccc(F)cc2)nnc1SCC(=O)N1CC(=O)Nc2ccccc21	12	3	21515*	7	-14	-18	1.2
CCCCn1c(N)c(N(CCOC)C(=O)c2ccc(N(C)S(=O)(=O)c3ccc(C)cc3)cc2)c(=O)[nH]c1=O	7	-9	u	1	-20	-2	2.9
N=c1sccn1CC(=O)Nc1ccc(S(N)(=O)=O)cc1	1	8	4588	0	-18	1	2.7
COc1cccc(CNC(=O)CSc2ccc(-c3ccncc3)nn2)c1	15	14	x	7	x	2	6.8

Bioassay records deposited in PubChem by several laboratories.
